Assay outcomes as filed in PubChem BioAssay.
RecA intein inh – blocks M. tuberculosis RecA intein splicing | inhibition, %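 (about 9 µM by stock and volumes)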 | 290,000 tested, 0.75% active | cell-free RecA intein splicing, fluorescence; in the data active = inhibition above about 30%; inconclusive = no clear call, values can overlap the other calls;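 also: 0% = vehicle wells and 100% = reference inhibitor control wells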
Target sequence (P9WHJ3 whole entry, looked up): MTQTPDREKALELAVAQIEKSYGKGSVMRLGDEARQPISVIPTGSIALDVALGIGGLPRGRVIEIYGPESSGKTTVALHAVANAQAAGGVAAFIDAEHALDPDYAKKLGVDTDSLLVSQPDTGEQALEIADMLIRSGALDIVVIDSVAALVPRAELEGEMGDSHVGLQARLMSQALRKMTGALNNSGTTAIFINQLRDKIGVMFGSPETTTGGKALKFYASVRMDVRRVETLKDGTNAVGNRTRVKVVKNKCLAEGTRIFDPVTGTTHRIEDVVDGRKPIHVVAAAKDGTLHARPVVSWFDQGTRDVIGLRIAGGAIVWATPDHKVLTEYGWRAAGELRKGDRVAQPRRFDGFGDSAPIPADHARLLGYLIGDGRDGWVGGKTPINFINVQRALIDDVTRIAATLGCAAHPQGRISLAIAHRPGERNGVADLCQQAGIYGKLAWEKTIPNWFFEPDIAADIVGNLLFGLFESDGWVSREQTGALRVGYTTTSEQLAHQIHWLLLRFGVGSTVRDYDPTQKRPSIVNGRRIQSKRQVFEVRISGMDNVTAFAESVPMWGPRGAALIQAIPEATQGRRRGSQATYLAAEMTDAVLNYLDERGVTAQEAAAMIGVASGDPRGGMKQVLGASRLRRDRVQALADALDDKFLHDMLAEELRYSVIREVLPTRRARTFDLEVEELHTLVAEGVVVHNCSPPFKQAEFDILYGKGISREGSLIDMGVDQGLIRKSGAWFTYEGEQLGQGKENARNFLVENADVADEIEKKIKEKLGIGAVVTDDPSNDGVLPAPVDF
Arbovirus inh – antivirals against arbovirus infection; AID 1251; 200,000 tested, 0.37% active; arbovirus infection cell-based antiviral screen; inhibition, % at 10 µM;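 active = inhibition from about 30%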;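 also: bluetongue infection of BSR cells; cell survival read as ATP light after 72 h; 0% = infected wells without compound and 100% = uninfected wells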
Mtb growth – M. tuberculosis H37Rv growth inhibitors, H37Rv strain (AID 1626); M. tuberculosis H37Rv growth inhibition; higher % means a stronger effect; 220,000 tested, 0.95% active; inhibition, % at 10 µM; hits with a dose series show IC50 in µM;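 active = confirmed in a dose series; inconclusive = inhibition above 80% but not taken into the dose series; inactive = below 80% or under 30% at every dose of the series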;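 also: bacteria incubated seven days before Alamar blue readout; 0% = bacteria only wells and 100% = bacteria with antibiotic wells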
Mtb betalactam – beta-lactam sensitization of Mtb H37Rv; M. tuberculosis H37Rv growth with meropenem, percent inhibition; hits of this screen are not shown here; inhibition, % at 25 µM; 330,000 tested, 0.27% active;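 active = about 74% or more and at least 40 points above the plate without the antibiotic, then above 30% in a dose series; inconclusive = first-round hits that could not be retested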;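 also: growth measured after seven days incubation then overnight dye step; 0% = bacteria only wells and 100% = bacteria with antibiotic; twin plates without the antibiotic show which effects depend on it; some results filed as inactive read as strong as hits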
YopH inh – inhibitors of Yersinia enterocolitica YopH tyrosine phosphatase; inhibition, %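 (about 10 µM by stock and volumes)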; fluorescence Ex485/Em525; AID 898; 140,000 tested, 0.16% active;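 active = inhibition of 50% or more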;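 also: controls were vehicle for no effect and minimum signal wells for full effect; inactives centre near -20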
Arbovirus inh repeat – second read-out of Arbovirus inh, no call of its own (marks repeat the call); inhibition, %; measured here: 10K subset replicate screen; many hits read low in the repeat;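 first of two repeat runs on a subset; 0% = infected and 100% = uninfected wells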
Active calls of the source: *; ? = inconclusive; nt = no result given; & = joins results of further samples.

SMILES	RecA intein inh	Arbovirus inh	Mtb growth	Mtb betalactam	YopH inh	others
COc1ccc(C)cc1NC(=O)CSc1nnc(-c2ccccn2)n1Cc1ccco1	0.0	4	2%	4	-51	Arbovirus inh repeat=-1
COCCN(C(=O)c1cc(OC)c(OC)c(OC)c1)c1c(N)n(Cc2ccccc2)c(=O)[nH]c1=O	0.9	3	-6%	-4	nt
CC1CCN(CC(=O)Nc2ccc(Cl)cc2[N+](=O)[O-])CC1	5.4	-5	-7%	5	nt
CCOc1nc(NCCc2ccc(OC)c(OC)c2)nc(NC(C)(C)CO)n1	-0.8	1	-1%	1	-30
Cc1cc(NC(=O)CSc2nc3c(c(=O)n2C)SCC3)no1	0.5	nt	nt	11	nt
O=C(CSc1nnc(C2COc3ccccc3O2)o1)Nc1nccs1 (stereo not drawn)	1.5	3	10%	5	-17
Nc1ncnc2c1ncn2C1OC(CO)C(O)C1N (stereo not drawn)	-2.1	nt	-8%	-3	nt
CCc1nc2ccccc2n1Cc1ccc(OC)c(OC)c1	1.1	8	nt	-12	19
Cc1ccc2nsnc2c1S(=O)(=O)N1CCN(C(=O)C2CCCO2)CC1 (stereo not drawn)	0.0	2	-2%	-4	-25
CC(C)C(=O)NCCc1nc2ccccc2n1CCc1ccccc1	1.2	0	7%	-13	nt
CCCC(=O)Nc1cc(OC)c(C(=O)OC)cc1Cl	-1.1	2	-2%	-9	nt
COc1cccc(NC(=O)c2ocnc2C)c1	-0.7	-2	-4%	nt	-56
O=C(CCc1nc2ccccc2[nH]1)Nc1ccc(F)cc1	0.9	-5	-5%	-3	5
O=C1CCc2cc(NS(=O)(=O)c3ccc([N+](=O)[O-])cc3)cc3c2N1CCC3	-0.3	nt	nt	-11	nt
CC1(C(=O)N(CC(=O)NC2CCCC2)Cc2ccccc2)CC(=O)N=C2C=CC=CN21 (stereo not drawn)	-0.3	nt	nt	1	nt
COc1ccc(OC)c2[nH]c(=O)c(CCNC(=O)C(C)C)cc12	0.9	0	-6%	-3	-40	Arbovirus inh repeat=4
CCN(CC)C(=O)C[n+]1cccc(C(N)=O)c1	-0.4	5	-11%	7	-40
Cc1ccccc1OCC(=O)NCCCNC(=O)c1cccnc1	1.0	nt	nt	-12	nt
O=C(N=Nc1c(O)n(Cc2ccccc2)c2ccccc12)c1ccc(O)cc1	3.8	-29	22%	14	-22
O=C(CCNc1ccc(Cl)c(C(F)(F)F)c1)c1ccco1	4.5	1	49µM*	98	-8
CC(C)(C)C1(C)OC(C(N)=O)C(C(N)=O)O1 (stereo not drawn)	0.3	2	-5%	1	-38	Arbovirus inh repeat=4
Clc1ccccc1-c1nc2ccccc2[nH]1	2.5	nt	-4%	79	nt
Cc1cc2n(n1)SC(Nc1ccc(F)cc1)N2 (stereo not drawn)	0.0	1	-11%	-5	-17
CC1CC2=C(NC(=S)NC2c2cccc(F)c2)/C(=C/c2cccc(F)c2)C1 (stereo not drawn)	13	-3	8%	nt	nt
CCOCCc1nnc(NC(=O)CCc2ccccc2)s1	0.6	nt	nt	8	nt
CN(C)c1nc(N)nc(-c2cccnc2)n1	-6.2	9	-24%	-8	7	Arbovirus inh repeat=8
COc1ccc(CNC(=S)Nc2cccc(C)c2)cc1	-0.4	5	14%	-6	-3
COc1ccccc1CNC(=O)COC(=O)C1CCN(c2ccc(C(F)(F)F)cn2)CC1	7.6	nt	nt	-2	nt
O=C(O)c1cc(Br)ccn1	-2.5	8	7%	-10	nt
COc1ccc(CCNS(=O)(=O)c2cc(/C=C/C(=O)O)ccc2C)cc1OC	-0.8	11	3%	-3	nt
c1ccc(-c2ccc(C(c3ccccc3)n3ccnc3)cc2)cc1 (stereo not drawn)	?	-23&-22	?	88	-42
CC(C)CC(=O)Nc1ccc(-c2nc3ccccc3c(=O)[nH]2)cc1	0.8	-3	4%	3	-2
COc1ccccc1NC(=S)N(C(C)C)C(C)c1ccccn1 (stereo not drawn)	1.3	7	0%	-4	nt
COC(=O)[C@]1(C)C[C@H]1[C@H](NP(=O)(c1ccccc1)c1ccccc1)c1ccccc1	3.8	-10	-5%	-4	-3
O=C(Cc1cccs1)N1CCC(c2nc3c(nnn3Cc3ccccc3Cl)c(=O)[nH]2)CC1	2.8	0	14%	51	-49
CC(=O)c1cccc(Nc2ncnc3ccc(Br)cc23)c1	0.7	nt	nt	0	nt
O=C(CSc1ccc(/C=N/NC(=O)c2cccc(F)c2)o1)Nc1ccccc1	-2.3	-5	-5%	14	-19
O=C(O)Cc1ccc2oc(-c3ccccn3)nc2c1	-0.5	nt	nt	1	nt
CC(=O)NC(Cc1ccccc1F)C(=O)NC1CCN(C(=O)NCc2ccccc2)CC1 (stereo not drawn)	-4.1	nt	nt	-11	nt
O=c1[nH]c(=O)n(-c2cccc3ccccc23)c(O)c1/C=N/N1CCCCC1c1cccnc1 (stereo not drawn)	3.8	-4	-5%	-6	-11
CC(=O)Nc1ccccc1Nc1nc(NCCO)nc(N2CCCC2)n1	0.0	nt	-4%	-3	nt
COCCNC(=O)C(c1ccc(F)cc1)N(C(=O)CCC(=O)Nc1nccs1)c1cccc(C)c1 (stereo not drawn)	-4.3	-7	-9%	-9	nt
COc1ccc(OC)c(S(=O)(=O)Nc2cc3c4c(c2)CCN4C(=O)CC3)c1	-3.6	nt	nt	-4	nt
COc1ccccc1CN1CCN(C(=O)c2ccco2)CC1	0.2	nt	nt	-4	nt
Cc1ccc(-n2c(-c3cn(C)nc3C)n[nH]c2=S)cc1	-0.2	3	-3%	17	nt
Cn1c(=O)c2[nH]c(CCCC(=O)O)nc2n(Cc2ccccc2)c1=S	-0.7	nt	-8%	-10	nt
O=C(NNS(=O)(=O)c1ccccc1)c1csc(-c2cccnc2)n1	-8.0	nt	-9%	-2	nt
Cc1cc(OCC(=O)NCCCN2CCOCC2)c2c(C)c(C)c(=O)oc2c1	-0.7	nt	nt	2	nt
Cc1occc1-c1nnc(SCC(=O)N2CCN(c3ccccc3)CC2)n1C	2.2	5	-9%	-9	-60
COc1ccc(C(=O)CC(=O)C(=O)Nc2c(C)cccc2C)cc1	0.5	nt	nt	-2	nt
Cc1cccc(NC(=O)CN(C)S(=O)(=O)c2ccc(Br)cc2)n1	0.4	4	11%	-11	1
CC1Cn2c(nnc2-c2ccc(F)cc2)S1 (stereo not drawn)	0.1	-4	-9%	3	nt
CN1CCC(C(=O)N2CCCC(C(=O)c3ccc4c5c(cccc35)CC4)C2)CC1 (stereo not drawn)	-0.5	-23	-3%	5	nt
CCc1ccc(/C=C(\C)C(=O)c2c(C)cc(C)[nH]c2=O)cc1	-1.2	1	6%	1	nt
Cc1ccc(C(=O)NCCCCNC(=O)c2ccc(C)o2)o1	-1.8	8	-7%	-10	-40	Arbovirus inh repeat=2
O=C(c1cn(Cc2ccccc2)c2ccccc12)C1CC1	-0.8	1	3%	-5	nt
CCOC(=O)c1cc(NC(=O)N(CC)C2CCCCC2)c(C)nc1C	1.1	4	-5%	3	-19
C=CCn1c(=O)c2ccccc2n2c(SCC(=O)NCCc3ccccc3)nnc12	-2.8	0	1%	-5	-1
CCSc1nnc(CNC(=O)C23CC4CC(CC(C4)C2)C3)n1Cc1ccccc1	1.6	-3	nt	30	-23
CCN1C(=O)C(Cc2nc3ccccc3c(=O)n2-c2ccccc2)c2ccccc21 (stereo not drawn)	2.4	0	-7%	-8	-35

Looked up by structure from the list above, 2 records:
SMILES	RecA intein inh	Arbovirus inh	Mtb growth	Mtb betalactam	YopH inh	others
CC1Cn2c(nnc2-c2ccc(F)cc2)S1 (stereo not drawn)	0.1	-4	-9%	3	nt
COc1ccc(C(=O)CC(=O)C(=O)Nc2c(C)cccc2C)cc1	0.5	nt	nt	-2	nt

Arranged by length of the SMILES (low to high): 14 of the compounds above
SMILES	RecA intein inh	Arbovirus inh	Mtb growth	Mtb betalactam	YopH inh	others
CC1Cn2c(nnc2-c2ccc(F)cc2)S1 (stereo not drawn)	0.1	-4	-9%	3	nt
O=C(c1cn(Cc2ccccc2)c2ccccc12)C1CC1	-0.8	1	3%	-5	nt
Cc1ccc(C(=O)NCCCCNC(=O)c2ccc(C)o2)o1	-1.8	8	-7%	-10	-40	Arbovirus inh repeat=2
Cc1ccc(-n2c(-c3cn(C)nc3C)n[nH]c2=S)cc1	-0.2	3	-3%	17	nt
CC(=O)Nc1ccccc1Nc1nc(NCCO)nc(N2CCCC2)n1	0.0	nt	-4%	-3	nt
CCOC(=O)c1cc(NC(=O)N(CC)C2CCCCC2)c(C)nc1C	1.1	4	-5%	3	-19
O=C(NNS(=O)(=O)c1ccccc1)c1csc(-c2cccnc2)n1	-8.0	nt	-9%	-2	nt
Cc1cccc(NC(=O)CN(C)S(=O)(=O)c2ccc(Br)cc2)n1	0.4	4	11%	-11	1
CCc1ccc(/C=C(\C)C(=O)c2c(C)cc(C)[nH]c2=O)cc1	-1.2	1	6%	1	nt
Cn1c(=O)c2[nH]c(CCCC(=O)O)nc2n(Cc2ccccc2)c1=S	-0.7	nt	-8%	-10	nt
Cc1cc(OCC(=O)NCCCN2CCOCC2)c2c(C)c(C)c(=O)oc2c1	-0.7	nt	nt	2	nt
C=CCn1c(=O)c2ccccc2n2c(SCC(=O)NCCc3ccccc3)nnc12	-2.8	0	1%	-5	-1
CN1CCC(C(=O)N2CCCC(C(=O)c3ccc4c5c(cccc35)CC4)C2)CC1 (stereo not drawn)	-0.5	-23	-3%	5	nt
COCCNC(=O)C(c1ccc(F)cc1)N(C(=O)CCC(=O)Nc1nccs1)c1cccc(C)c1 (stereo not drawn)	-4.3	-7	-9%	-9	nt

The results go on:
SMILES	RecA intein inh	Arbovirus inh	Mtb growth	Mtb betalactam	YopH inh	others
CC(NC(=O)c1ccc(Cn2cc([N+](=O)[O-])cn2)o1)c1ccccc1 (stereo not drawn)	3.7	4	3%	-3	-20
O=C(/C=C/c1cccs1)NC(=S)Nc1ccc(S(=O)(=O)Nc2ccccc2C(F)(F)F)cc1	6.4	nt	-5%	-4	nt
Cc1ccccc1OCC(=O)NC(=S)Nc1ccc(Br)c(C)n1	0.7	4	?	-3	-42
Cc1ccc(NC(=O)Nc2ccc3c(c2)OCO3)c(OC(F)F)c1	-4.0	nt	nt	8	nt
O=C(c1ccco1)N1CCN(C(=O)C2CC(=O)N(c3ccc(Cl)cc3)C2)CC1 (stereo not drawn)	-0.3	nt	nt	-9	nt
COc1ccc(CC(=O)NNC(=O)c2cccs2)cc1OC	nt	6	-4%	2	nt
COC(=O)c1nn(-c2ccc(C)cc2)ccc1=O	0.5	3	-5%	2	nt
O=C(Nc1cc(S(=O)(=O)N2CCOCC2)ccc1Oc1ccc(F)cc1)C1=COCCO1	-2.4	nt	nt	-4	nt
CCc1cc2ccc(C)cc2nc1SCC(=O)NC1CCCC1	1.4	nt	nt	13	nt
O=C(O)CSCC(=O)Nc1cc(C(F)(F)F)ccc1Cl	-0.5	11	-5%	4	-37
CCOc1ccc(S(=O)(=O)N2CCCC(C(=O)NCC3CCCO3)C2)cc1Cl (stereo not drawn)	0.0	nt	nt	-8	nt
COCCCOc1ccnc(CS(=O)c2nc3ccccc3[nH]2)c1C (stereo not drawn)	-2.7&1.2	nt	-11%	-8&3	nt
Cc1c(NC=C(C#N)C#N)c(=O)n(-c2ccccc2)n1C	-0.4	5	3%	-1	nt
Cc1nn2c(-c3cccnc3)ccnc2c1-c1ccccc1	-0.3	3	16%	22	-16
Cc1ccc(C(O)c2nccn2C)o1 (stereo not drawn)	1.3	2	0%	0	-14
Cc1c(OC(C)C(=O)O)ccc2c(-c3ccccc3)cc(=O)oc12 (stereo not drawn)	-2.5	nt	nt	-2	nt
CCOC(=O)CSc1nc2ccc(NC(=O)CSc3nnnn3Cc3ccccc3)cc2s1	0.1	-4	3%	49	-34
COc1ccc(C(=O)C=CNNC(=O)c2ccc(Cl)cc2)cc1	-0.3	nt	nt	7	nt
C=CCn1c(SCC(=O)N2CCN(c3ccccc3)CC2)nc2c([nH]c3ccccc32)c1=O	0.5	nt	nt	-3	nt
CC(Nc1nc(-c2ccncc2)nc2ccccc12)c1ccccc1 (stereo not drawn)	-0.7	nt	nt	7	nt
O=C1NC(=O)/C(=C\c2ccc(OCc3ccccc3)cc2)S1	-1.8	nt	nt	0	nt
CC1(C)CC(=O)C2=C(C1)OC(N)=C(C#N)C2c1ccccc1OC(=O)N1CCOCC1 (stereo not drawn)	1.2	4	-5%	0	-27
COc1cc(OC)cc(N(C(=O)c2snc(C(N)=O)c2N)C(C(=O)NCC2CCCO2)c2ccc(C)o2)c1 (stereo not drawn)	-9.6	nt	nt	-1	nt
Cc1ccc(C(=O)N2CCCC(CCC(=O)N3CCN(c4ccccn4)CC3)C2)cn1 (stereo not drawn)	4.2	nt	nt	?	nt
COc1cccc(NC(=O)N2CCN(c3cccc(C)c3C)CC2)c1	8.4	-26	-10%	-3	-27
C/C(CC(=O)NCCCN1CCOCC1)=N\NC(=O)COc1ccc(Cl)cc1	10	3	1%	3	-37

Not all compounds are listed; the hit share may differ from the screen's.
